Source: PubChem BioAssay
Env fusion inh = blocks HIV Env-driven cell-cell fusion | HeLa-JRFL Env/CEM21 cell fusion, luciferase | inhibition, % at 12.3 µM | 360,000 tested, 1.1% active | AID 651610;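 active means mean replicate inhibition score of at least 50 and every replicate individually at or above 50; inconclusive means only one of the two criteria met; inactive means mean below 50 and not all replicates reaching 50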;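 further: 0% = plate neutral controls and 100% = maraviroc near 300 nM; one replicate is shown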
PABP FP inh = PABP-poly(A) binding inhibition; PABP-poly(A) RNA binding, fluorescence polarization; 290,000 tested, 1% active; P11940; inhibition, % at 35 µM;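 active means 50% or more with normal probe brightness, or confirmed in later tests; inconclusive means above 50% with abnormal brightness, or retests that disagree; inactive means below 50% or failed in later tests; about a fifth of its hits are not listed in these tables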;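 further: calls also rest on retests at 20 µM and on dose response follow-up; controls were probe without protein and protein plus probe with vehicle; some compounds called inactive have numbers as strong as hits; many hits fall short of the cut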
Target sequence (P11940 whole entry, looked up): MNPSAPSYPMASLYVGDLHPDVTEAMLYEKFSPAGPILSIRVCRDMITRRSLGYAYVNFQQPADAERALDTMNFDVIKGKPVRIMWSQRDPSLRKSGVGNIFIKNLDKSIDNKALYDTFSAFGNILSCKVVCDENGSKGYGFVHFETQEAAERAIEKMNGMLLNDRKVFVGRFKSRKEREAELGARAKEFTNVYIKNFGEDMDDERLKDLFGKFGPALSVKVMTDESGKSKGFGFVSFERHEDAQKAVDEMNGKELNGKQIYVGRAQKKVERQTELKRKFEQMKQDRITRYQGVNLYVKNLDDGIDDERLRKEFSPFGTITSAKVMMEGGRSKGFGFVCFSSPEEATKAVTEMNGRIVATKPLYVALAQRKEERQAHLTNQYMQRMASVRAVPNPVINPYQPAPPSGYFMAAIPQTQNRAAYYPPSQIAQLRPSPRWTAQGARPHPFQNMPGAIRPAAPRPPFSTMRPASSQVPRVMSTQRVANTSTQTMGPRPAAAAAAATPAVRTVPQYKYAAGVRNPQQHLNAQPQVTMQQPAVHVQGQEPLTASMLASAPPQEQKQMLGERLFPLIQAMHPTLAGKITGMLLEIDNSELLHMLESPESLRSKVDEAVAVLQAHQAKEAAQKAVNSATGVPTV
CSC inhib = blocks cancer stem cells; cancer stem cell-like cells viability, luminescence; inhibition, % at 7.5 µM; 300,000 tested, 1.1% active; AID 2717;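 active means mean at 75% or more and at least half the replicates too; inconclusive means mean and replicates disagree; tested in HMLE shEcad cells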;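 further: 0% = median of negative and 100% = median of positive control wells; the first replicate is given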
MT1-MMP act inh = MT1-MMP (human) activation inhibition | HT1080 RFP-PRO-GFP cells, GFP/RFP ratio fluorescence, overnight; percent of plate control window, DMSO zero | 360,000 tested, 0.061% active | AID 651647 | GFP/RFP ratio change, % at 20 µM | P50281;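 active means GFP/RFP ratio change of at least 30% with cell ATP level not reduced by more than half and red fluorescence within 50% of control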; further: strong numbers were not always called active
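Assay system: HT1080 RFP-PRO-GFP cells. Benchmarks: DMSO vehicle wells and RFP-L50D-GFP reporter cell wells. Times: overnight cell settling, then overnight compound exposure, 37 °C, 5% CO2. Compound: 20 µM single dose, 1% DMSO. Read-out basis: GFP/RFP fluorescence ratio.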
eIF4H FP inh = inhibitors of RNA binding by human eIF4H. eIF4H fluorescence polarization binding assay. inhibition, % at 35 µM. 290,000 tested, 0.94% active. AID 2012;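 active means 50% or more with normal probe brightness, or confirmed in later tests; inconclusive means above 50% with abnormal brightness, or retests that disagree; inactive means below 50% or failed in later tests; about a fifth of its hits are not listed in these tables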;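 further: calls also rest on retests at 20 µM and on dose response follow-up; 0% = protein and probe with vehicle and 100% = probe without protein; strong numbers were not always called active; many hits fall short of the cut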
UUG fidelity = alters start codon recognition fidelity in yeast | S. cerevisiae UUG-firefly luciferase reporter, luminescence/redox ratio | 350,000 tested, 0.13% active | activity score, % at 18.7 µM;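 active means replicate mean at a twofold rise or more, about +100% in these data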;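 further: firefly luciferase made from a UUG start codon reports start codon fidelity; reporter light over untreated wells divided by growth signal over untreated wells; some hits fall short of that in this replicate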
Rce1 inh = inhibitors of yeast Ras-converting enzyme; Q03530; yeast membranes, quenched prenylated peptide cleavage fluorescence; 290,000 tested, 0.27% active; AID 2563; calls only;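 active means fall in fluorescence gain of 50% or more versus controls, with final raw signal at or below 3038400; inconclusive means same 50% fall but final raw signal above 3038400; inactive means fall in fluorescence gain under 50%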;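 further: plate controls were neutral control wells for no effect and wells lacking membranes for full effect; tested at 10 µM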
Target sequence (Q03530 whole entry, looked up): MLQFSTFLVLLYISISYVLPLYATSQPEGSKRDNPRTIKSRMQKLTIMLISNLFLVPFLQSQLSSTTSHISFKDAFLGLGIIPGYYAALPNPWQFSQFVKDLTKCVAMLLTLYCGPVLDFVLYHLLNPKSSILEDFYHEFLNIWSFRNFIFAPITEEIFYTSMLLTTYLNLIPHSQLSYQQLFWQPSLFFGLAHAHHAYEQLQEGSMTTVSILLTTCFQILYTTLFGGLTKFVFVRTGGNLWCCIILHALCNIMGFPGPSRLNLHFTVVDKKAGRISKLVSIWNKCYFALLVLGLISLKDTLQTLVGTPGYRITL
MT1-MMP act inh RFP = recorded beside MT1-MMP act inh, whose call it bears; RFP signal change, %; measured here: RFP expression control read;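 0 = vehicle wells; hits needed this value within 50% of zero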
Starred values were filed as active, the others as inactive; i = inactive; u = inconclusive; x = no result given.

SMILES	Env fusion inh	PABP FP inh	CSC inhib	MT1-MMP act inh	MT1-MMP act inh RFP	eIF4H FP inh	UUG fidelity	Rce1 inh
Cc1cc(C)c(C)c(C(=O)CSc2nnc(-c3ccc4[nH]c(C)c(C)c4c3)o2)c1C	x	-3.7	12.1	0.8	-2.3	0.2	x	i
CCCCC1=NN2C(=N)CC(=O)N=C2S1	-25.1	1.3	1.5	-4.7	-4.3	12.1	-24.2	i
O/N=C/c1ccc(-c2ccccc2OC(F)(F)F)o1	8.8	5.7	2.5	5.8	3.1	-2.1	x	x
NS(=O)(=O)c1ccc(CCNC(=O)CN2CCC(Cc3ccccc3)CC2)cc1	28.9	-0.7	-14.3	-5.2	-18.1	-5.8	x	i
CCn1c(COc2ccc(C)cc2)nnc1SCC(=O)NNC(=O)c1ccc(OC)cc1	6.0	-5.1	-6.8	3.1	2.0	-4.4	-0.3	i
CN(C)S(=O)(=O)c1ccc(N2CCCC2)c(C(=O)OCC(=O)NC2(C#N)CCCCC2)c1	x	x	-8.8	1.2	1.7	x	11.4	i
NNC(=O)c1ccc(CSc2nc3ccccc3s2)cc1	-29.4	-14.6	2.1	2.5	-12.8	-7.3	-6.2	i
CCCCn1c(N)c(N(CC(C)C)C(=O)C2CC(=O)N(CCc3ccccc3)C2)c(=O)[nH]c1=O (stereo unspecified)	4.7	16.7	-8.2	-0.1	0.9	-7.1	7.0	i
Cc1c(C#N)c2ccccc2n1CC(=O)NC(C)c1ccccc1 (stereo unspecified)	-13.9	0.5	-10.0	1.0	3.0	1.1	x	i
COc1ccc(CNCCc2ccc(Cl)cc2)cc1OCc1ccccc1	x	14.8	45.0	-5.3	-15.4	6.8	-10.2	i
CC(C)CNc1c(N)n(CC(C)C)c(=O)[nH]c1=O	-2.9	-1.3	x	3.9	1.0	47.5	x	x
C/C(CCc1ccc2c(c1)OCO2)=N\N=C1\NC(=O)CC(C(=O)Nc2ccccc2)S1 (stereo unspecified)	-51.8	3.5	-10.8	-1.9	0.8	-5.4	-25.3	i
CCOC(=O)c1ccc(Nc2nc(C)nc3c2nnn3Cc2ccccc2)cc1	11.8	-11.5	8.3	-3.1	-12.9	-13.0	-12.9	i
Cc1ccc(NC(=O)CCC(=O)N2CCC(C)CC2)c([N+](=O)[O-])c1	-22.0	4.3	-5.4	4.3	-2.1	-4.5	-5.0	i
Cc1ccc(C(=O)NC2(O)C(=O)c3ccccc3C2=O)cc1C	-19.5	-0.2	-5.8	4.5	5.5	-10.5	-15.5	i
COc1ccc(C2/C=C\CN(C(=O)NC34CC5CC(CC(C5)C3)C4)CC(=O)N2Cc2ccc(F)cc2)cc1 (stereo unspecified)	40.2	-1.8	29.7	3.6	-1.6	-4.7	20.9	i
CCn1c(=N)n(CC(=O)c2ccco2)c2ccccc21	-35.7	-9.7	-10.0	-7.3	-3.8	-1.7	-4.2	i
CC(C)(C)N(CC#CCC(O)(c1ccccc1)C1CCCC1)CCO (stereo unspecified)	22.7	-3.4	x	-0.2	2.1	8.5	x	i
Cc1cccc(OCCCC(=O)Nc2nnc(C3CCCO3)s2)c1C (stereo unspecified)	4.8	-11.4	-15.0	-6.4	1.5	-1.4	-8.5	i
N=c1oc2ccc([N+](=O)[O-])cc2cc1C(=O)NCc1ccccc1	-11.5	11.2	-4.4	3.5	-0.5	12.2	-18.9	i
Cc1nnc(SCC(=O)NC23CC4CC(CC(C4)C2)C3)s1	-2.8	-8.3	4.1	2.5	7.9	-17.7	-0.8	i
CC(=O)Nc1cc(C(=O)N(C)Cc2ccco2)ccc1Sc1ccc(Cl)cc1	6.4	8.6	-3.4	-0.6	-1.4	0.6	x	i
Cc1cc(C)c(S(C)(=O)=O)c(=O)[nH]1	2.3	-4.9	x	2.4	1.0	-4.8	x	i
Oc1ccc(C(=S)N2CCN(c3cccc(Cl)c3)CC2)cc1	11.7	0.1	-13.6	-4.1	-3.7	-11.4	x	i
COc1cccc(OC)c1C(=O)NC(=O)Nc1c(F)c(F)c(F)c(F)c1F	2.5	14.1	-6.1	1.4	0.7	-18.1	x	i

Continued, overlapping the part above by 3 compounds.
SMILES	Env fusion inh	PABP FP inh	CSC inhib	MT1-MMP act inh	MT1-MMP act inh RFP	eIF4H FP inh	UUG fidelity	Rce1 inh
Cc1cc(C)c(S(C)(=O)=O)c(=O)[nH]1	2.3	-4.9	x	2.4	1.0	-4.8	x	i
Oc1ccc(C(=S)N2CCN(c3cccc(Cl)c3)CC2)cc1	11.7	0.1	-13.6	-4.1	-3.7	-11.4	x	i
COc1cccc(OC)c1C(=O)NC(=O)Nc1c(F)c(F)c(F)c(F)c1F	2.5	14.1	-6.1	1.4	0.7	-18.1	x	i
O=C(NCc1cccc(Cl)c1)c1ccc2nc[nH]c2c1	4.7	-3.7	6.0	0.4	4.5	-5.9	1.1	i
CCOC(=O)CSC1=C(C#N)C(=O)NC2(CCCCC2)S1	x	27.1	-9.2	-0.5	1.3	-9.3	-7.5	i
COc1cc(NC(=O)c2ccc(Br)o2)ccc1NC(=O)c1ccccc1Cl	-6.8	6.0	-4.8	5.6	4.2	1.6	8.7	i
O=C(O)CCc1ccc(-c2ccc(Cl)cc2)n1CC(=O)Nc1ccccc1	14.3	-1.0	-2.5	10.2	7.6	-8.5	12.8	i
COCCNC(=O)c1ccc(NS(=O)(=O)c2cc(C)ccc2C)cc1	-14.0	0.0	-19.9	-1.6	-2.9	-4.8	-2.6	i
COc1cc2c(cc1OC)C(c1cccc(F)c1)CC(=O)N2 (stereo unspecified)	-0.9	-7.1	-16.9	1.0	-1.2	-1.2	-6.2	x
Cc1occc1C(=O)OCC(=O)Nc1ccc(F)cc1	x	-7.6	-6.8	1.1	0.8	-2.9	-8.2	i
CCc1ccc2c(c1)C1(NN=C(c3ccccc3)S1)C(=O)N2 (stereo unspecified)	x	12.9	-4.5	-21.7	-22.3	16.2	x	i
O=C(N/N=C/c1ccc(F)cc1)c1c(O)c2ccccc2[nH]c1=O	11.2	3.6	4.5	-28.4	-17.3	-9.1	x	i
Cc1cc(C)n2nc(SCCOc3ccccc3F)nc2n1	-23.8	-11.5	-7.4	1.8	-0.5	-1.4	12.9	i
CC(C(=O)Nc1ccccc1Cl)N(c1ccccc1)S(C)(=O)=O (stereo unspecified)	-14.8	-1.9	2.0	0.3	4.9	-10.8	x	i
CCn1c(C(=O)O)c(S(=O)(=O)c2ccc(Cl)cc2)c2ccccc21	-2.6	2.5	-1.2	-1.3	0.5	-5.4	-7.0	i
Cc1nn(-c2ccccc2)c2c1C(O)n1c(nc3ccccc31)S2 (stereo unspecified)	x	4.4	-16.9	-1.5	-3.4	-8.0	-12.6	i
CC1(C(=O)O)CCC(C(=O)Nc2ccc(OC(F)(F)Cl)cc2)C1(C)C (stereo unspecified)	9.4	0.8	-14.5	4.7	-0.2	-4.6	-9.7	i
COc1cc2c(C(=O)N3CCN(C)CC3)c(C)oc2cc1Br	3.1	-0.8	11.0	1.8	-2.1	-5.4	7.9	x
Cc1nc(SCC(=O)NCc2ccc(F)cc2)c2c(=O)n(C)c(=O)n(C)c2n1	-19.2	4.3	4.5	0.3	2.9	13.2	-11.9	i
Cc1ccc(C(C)C)c(OCC(=O)c2c(O)c3ccccc3oc2=O)c1	x	x	4.9	-2.1	3.4	x	x	i
CC(C)(C)NC(=O)NC(=O)CSc1ccc(S(=O)(=O)N2CCOCC2)cn1	-3.0	x	x	0.3	-1.1	x	2.1	x
CC(C)C(=O)Nc1ccc(C(=O)N2CCN(C(=O)c3ccco3)CC2)cc1	x	2.7	x	x	x	-7.7	x	i
CCCCn1c(N)c(N(CCOC)C(=O)c2ccc(Br)o2)c(=O)[nH]c1=O	5.3	x	-9.4	1.5	1.7	x	x	i
O=C(NCCc1ccc(F)cc1)c1cc2ccccc2oc1=O	18.5	-2.5	4.4	0.2	0.4	17.1	15.6	i
CCOC(=O)C1=C(COC(=O)/C=C/c2ccc([N+](=O)[O-])cc2)NC(=O)NC1C (stereo unspecified)	x	x	-6.4	-1.8	0.4	x	-5.2	x
O=C(CCC(=O)N1CCc2ccccc21)Nc1ccccc1	-29.8	-5.7	5.7	1.0	3.1	-16.3	-15.5	i
O=C1CCC(C(=O)N(Cc2ccco2)C2(C(=O)NC3CCCC3)CCCCC2)N1 (stereo unspecified)	x	-1.3	-6.6	-1.4	1.2	-0.6	-2.9	i
COCCNC(=O)c1ccc(C)c(S(=O)(=O)Nc2ccc(C)cc2)c1	x	5.1	-4.1	3.9	3.5	-2.6	-9.9	i
Carrying on:
SMILES	Env fusion inh	PABP FP inh	CSC inhib	MT1-MMP act inh	MT1-MMP act inh RFP	eIF4H FP inh	UUG fidelity	Rce1 inh
Nc1nc(OCC2CCCCC2)c2[nH]cnc2n1	-174.1	-0.1	0.2	-6.3	0.8	10.2	-20.6	i
O=C(Oc1ccc([N+](=O)[O-])cc1)c1ccc2ccccc2n1	x	20.8	-1.2	-1.7	6.6	-11.4	5.2	i
Cc1cc2ncn(S(=O)(=O)N3CCCCC3)c2cc1C	83.5*	0.0	10.2	1.6	-6.1	2.7	-33.5	i
Nc1ccccc1C#Cc1ccc([N+](=O)[O-])cc1	-75.4	x	26.0	-7.9	-13.6	x	x	i
O=C(N/N=C/c1ccoc1)c1ccc(Br)cc1	1.9	6.9	-2.6	-1.9	-0.4	-42.7	-20.6	i
O=C(NC1CCCc2ccccc21)C1CCN(S(=O)(=O)c2cccc3nsnc23)CC1 (stereo unspecified)	x	-2.5	-7.6	-4.9	-4.0	-6.6	-4.9	i
COc1cccc(C2=CC(=O)CC(C)(C)C2)n1	47.4	x	0.8	-9.2	-4.4	x	-13.5	i
Cc1ccc(-c2nc(-c3ccncc3)no2)c(C)c1	-46.8	9.6	-7.6	0.0	-3.5	-1.1	-18.3	i
COc1ccc(-c2[nH]ncc2CN2CCN(c3ccc(F)cc3)CC2)cc1	6.5	1.9	-2.9	5.0	-6.9	-3.5	1.8	i
Cn1cnc2cc(NC(=O)COc3ccccc3)ccc21	-31.3	5.9	18.0	-1.1	-2.1	-9.0	x	i
COc1ccc(NC(=O)C2CCCN(C(=O)Nc3ccc(F)cc3)C2)cc1 (stereo unspecified)	1.5	-2.7	x	-1.9	-1.5	-6.2	-23.6	i
COc1cccc(-c2sc3ccc(OC)cc3c2C#CCCO)c1	-30.5	x	116.2*	-1.8	0.6	x	7.1	x
Cc1cc2c(NCc3ccccc3)ncnc2s1	19.9	3.1	x	-2.6	-26.2	-3.3	-15.2	i
CC1CN(S(=O)(=O)c2cccc(C(=O)N(C)C3CCN(C)CC3)c2)CC(C)O1 (stereo unspecified)	x	x	5.3	-4.0	5.4	x	6.4	x
COc1cccc(C(=O)N2c3cc(C)ccc3OCC2C(C)(C)C)c1 (stereo unspecified)	22.3	-8.1	-2.2	0.5	-6.2	-4.7	-3.7	i
Cc1ccc(S(=O)(=O)N2CCN(C(=O)C(C)Cn3cncn3)CC2)cc1C (stereo unspecified)	-8.8	7.2	-4.4	1.5	1.3	-1.4	-9.8	x
COc1cccc(OCC(=O)O)c1	-29.2	u	-6.3	3.8	5.6	-4.7	-9.6	i
CC(=O)N1N=C(c2cccc(Cl)c2)OC1c1ccc(C(C)C)cc1 (stereo unspecified)	28.8	10.7	-15.6	2.0	7.4	-11.0	x	i
Oc1c(Cl)cc(Cl)cc1/C=N/c1nccs1	x	36.6	-1.9	-10.9	8.5	14.2	-11.1	i
CC(=O)c1ccc(N2Cc3ccccc3C2=NC(=O)c2cccs2)cc1	-2.1	3.6	7.5	-4.3	4.4	6.0	-12.4	i
CCc1nc2c(OCC(=O)C(C)(C)C)cccn2c1N(C)C(=O)CC(C)C	-45.7	x	x	0.2	2.6	x	-22.6	x

This is a subset. The share of hits here may be higher or lower than overall.
